Bioassay records: PubChem, National Center for Advancing Translational Sciences (NCATS)
Rango dissoc inh = qHTS Assay for Inhibitors of RanGTP induced Rango (Ran-regulated importin-beta cargo) - Importin beta complex dissociation; Biochemical FRET Rango-importin beta, RanGTP-induced dissociation; 0.071% of 340,000 active; Snurportin-1 (Homo sapiens) + GTP-binding nuclear protein Ran (Homo sapiens) + Importin …; AID 540253, 2011; Potency, µM (top dose mostly 46.1 µM), inactives show at the highest dose activity change, negative = inhibition; active means falling FRET ratio curve, often poorly fitted, with flat reads before Ran was added; inconclusive means other falling curves, or compound fluorescence or quenching; inactive means flat or rising ratio curve;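 note: potency is the fitted concentration of half-maximal effect; % of control where 0% means no effect; nearly all actives have a fitted effect of over 45% in size; -100% = wells without RanGTP and RCC1; the record marks most hits as doubtful in a second field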
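Two FRET readings bracket the reaction: one 5 min after compound meets Rango–importin beta, another 45 min after RanGTP-RCC1 (0.6 uM Ran, 0.2 uM RCC1, 2 mM GTP) is added. Only the second defines inhibition.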
miR-21 FLuc = qHTS Assay for Modulators of miRNAs and/orActivators of miR-21; HeLa miR-21 FLuc reporter, luciferase, 48 h; Potency, µM (highest dose often 38.3 µM), for the others: at the top dose reporter change, positive = more light; 340,000 tested, under 10 active; AID 2288, 2010; active = well fitted rising curve with a large enough effect; inconclusive = small, poorly fitted or top-dose-only effect; inactive = no such curve, though single readings can be large or run the other way;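 note: % of control where 0% means no effect; miR-21 action dims this reporter so a rising signal means less miR-21 action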
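Compounds were titrated across several concentrations (up to approximately 40 uM) and incubated 48 hours with HeLa miR-21-FLuc reporter cells (miR-21 target sequence downstream of FLuc, endogenous miR-21). Readout was firefly luciferase luminescence after lytic detection reagent.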
GLA inh pH 4.5 = qHTS Assay for Inhibitors of Human alpha-Galactosidase at pH 4.5; Alpha-galactosidase A (Homo sapiens), P06280; purified enzyme, 4-MU-alpha-Gal fluorescence, pH 4.5; activity change, negative = inhibition, % at 105 µM; 230,000 tested, under 10 active; AID 1467, 2008; inconclusive = small, poorly fitted or top-dose-only inhibition, or a rising curve; inactive = flat fitted curve, though single readings scatter; no compound was filed as active;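 note: 0% = full activity with enzyme and -100% = basal without enzyme; dose as in the result columns while the protocol names 77 µM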
Target sequence (P06280 whole entry, looked up): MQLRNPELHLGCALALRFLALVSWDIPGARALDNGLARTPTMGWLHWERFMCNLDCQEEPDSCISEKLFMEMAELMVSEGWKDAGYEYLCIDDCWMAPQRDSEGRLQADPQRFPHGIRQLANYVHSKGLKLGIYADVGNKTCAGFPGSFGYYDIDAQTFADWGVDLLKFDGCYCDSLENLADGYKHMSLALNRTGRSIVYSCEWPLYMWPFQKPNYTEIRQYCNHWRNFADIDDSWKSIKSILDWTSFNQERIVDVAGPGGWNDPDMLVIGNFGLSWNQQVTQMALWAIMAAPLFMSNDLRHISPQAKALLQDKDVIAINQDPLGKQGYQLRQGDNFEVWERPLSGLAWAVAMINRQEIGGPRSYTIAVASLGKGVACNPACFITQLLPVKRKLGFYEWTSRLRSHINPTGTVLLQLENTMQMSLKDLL
Rango complex inh = qHTS Assay for Inhibitors of Rango (Ran-regulated importin-beta cargo) - Importin beta complex formation. Importin subunit beta-1 (Homo sapiens), Q14974. Rango CFP/YFP FRET sensor + importin beta, 45 min. Potency, µM (highest dose often 92.2 µM), for the others: at the top dose inhibition of complex formation. 0.031% of 340,000 active. AID 540263, 2011; active = rising FRET ratio curve, often small or poorly fitted; inconclusive = mostly compound fluorescence or quenching in the first reads; inactive = flat curves in all reads;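 note: potency is the fitted concentration of half-maximal effect; 0% = DMSO wells and 100% = buffer wells lacking importin beta; nearly all actives have a fitted effect of over 15% in size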
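FRET biosensor (snurportin 1 IBB flanked by EYFP and cerulean), 50 nM, with compound 5 min, then 0.125 microM importin beta in PBS, 1 mM DTT, 0.02% Tween-20, 0.1% BSA. CFP/YFP ratio read after 45 min at room temperature; pre-read flags interference.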
Active calls of the source: *; ? = inconclusive; . = not tested or not shown; & = joins results of further samples. Not all compounds are listed. The share of hits here may be higher or lower than overall.

smiles | Rango dissoc inh | miR-21 FLuc | GLA inh pH 4.5 | Rango complex inh
N#CCC(=O)Nc1ccc(C(=O)NCC2(N3CCOCC3)CCCCC2)cc1 | -9% | . | . | -1.4%
COc1ccc(CCn2c(-c3ccc(C(C)(C)C)cc3)n[nH]c2=S)cc1OC | 0% | 0% | -15 | -0.5%
O=C(CSc1nnnn1C1CC1)N1CCN(c2cccc(Cl)c2)CC1 | 9% | . | . | 1.0%
CC(C(=O)N1CCc2ccccc2C1)N1C(=O)c2ccccc2C1=O (stereo not given) | 3% | -1% | -2 | -1.3%
CCCn1nnc(NC(=O)c2cc(Br)cc(Br)c2OC)n1 | -12% | -12% | -9 | -7.1%
O=C(Nc1ccc(S(=O)(=O)N2CCCCC2)cc1)C1CC(=O)N(c2ccc(Cl)cc2)C1 (stereo not given) | -8% | 29% | . | 1.9%
Cc1cccc(N2CCC(N=CN(C)C)=N2)c1 | -10% | -24% | -3 | -0.9%
Cc1ccc(C(=O)COC(=O)c2cc(=O)[nH]c3ccccc23)cc1 | 9% | -5% | -3 | 1.0%
Cc1ccc(Cn2c(SCC(=O)NCC3CCCO3)nc3c2c(=O)n(C)c(=O)n3C)cc1 (stereo not given) | 40% | -2% | -4 | 0.7%
COc1ccccc1CNC(=O)c1ccc(SC)cc1OC | 1% | -29% | 3 | -4.7%
CCC(=O)Nc1cc2nn(-c3ccc(OC)cc3)nc2cc1C | 3% | -50% | 3 | -4.2%
Cc1cc(Cl)c(OCCCN2CCCCC2)c(Br)c1 | 2% | -6% | -1 | -1.8%
COc1ccc(/C=C(/NC(=O)c2cccc([N+](=O)[O-])c2)C(=O)O)cc1 | -23% | 0% | -4 | 1.7%
CC(=O)Oc1cc2c(C(C)=O)coc2c2ccccc12 | -1% | -8% | -6 | 0.5%
O=C(Nc1ccc(OC(F)(F)F)cc1)c1ccc2c(c1)no[n+]2[O-] | 6% | . | . | 3.9%
CC(C)(O)C(=O)NN(C(=O)c1ccccc1)c1cccc(Br)c1 | -10% | 1% | 3 | 2.0%
Cc1ccc(O)c(C2=NNC(c3ccc(Cl)cc3)C2)c1 (stereo not given) | -1% | -33% | -10 | 4.1%
CC(=O)c1ccc(NC(=O)/C(=C\c2ccccc2)NC(=O)c2ccco2)cc1 | 19% | -4% | -3 | -5.0%
CCCCCCSc1ccc([C@H]2N[C@@](CC(C)C)(C(=O)OC)[C@H]3C(=O)N(C)C(=O)[C@@H]23)cc1OC | 17% | . | . | -0.4%
COc1cc(OC)c(NS(=O)(=O)c2c(C)[nH]c(=O)[nH]c2=O)cc1Cl | 20% | 7% | . | -0.5%

Quoted at random: three records from the list
smiles | Rango dissoc inh | miR-21 FLuc | GLA inh pH 4.5 | Rango complex inh
Cc1cc(Cl)c(OCCCN2CCCCC2)c(Br)c1 | 2% | -6% | -1 | -1.8%
CC(=O)c1ccc(NC(=O)/C(=C\c2ccccc2)NC(=O)c2ccco2)cc1 | 19% | -4% | -3 | -5.0%
COc1ccc(/C=C(/NC(=O)c2cccc([N+](=O)[O-])c2)C(=O)O)cc1 | -23% | 0% | -4 | 1.7%

Later entries
smiles | Rango dissoc inh | miR-21 FLuc | GLA inh pH 4.5 | Rango complex inh
O=C(c1cccc(Br)c1)N1CCN(C2=NS(=O)(=O)c3ccccc32)CC1 | -5% | 0% | . | -1.7%
CC(C)NC(=O)c1cccc(Cn2cc(Cl)cn2)c1 | 0% | -4% | 7 | -1.1%
CC(=O)N1CCN(c2ccccc2NC(=O)Cc2ccc(Cl)cc2)CC1 | -7% | -9% | 2 | -1.2%
O=C(CN1CCN(Cc2ccccc2)CC1)Nc1ccc(-n2cnnn2)cc1 | 3% | -10% | 2 | 1.0%
CCN(CC)CCN1C(=O)C(O)=C(C(=O)c2sc(C)nc2C)C1c1cccnc1 (stereo not given) | -12% | -6% | -10 | 2.2%
CC(CCc1ccccc1)NC(=O)CN1CCN(Cc2ccccc2)C1=O (stereo not given) | 1% | -5% | -6 | ?
COc1cc([N+](=O)[O-])ccc1NC(=O)COC(=O)CCOc1ccc(C)cc1 | -11% | . | . | -5.9%
CC(C)(C)c1ccc(N2C(=O)Cc3c2nc(N)c(C#N)c3N)cc1 | 2% | -39% | -2 | 0.5%
CC(=O)Nc1c(C(N)=O)oc2ccc(Cl)cc12 | -14% | 5% | 3 | -4.3%
COC(=O)c1cccc(NC(=S)N2CCN(C)CC2)c1 | -2% | -3% | . | -1.0%
COc1ccc(C(=O)NNC(=O)CSc2nnc(-c3cccnc3)o2)cc1 | -6% | -27% | -3 | -0.4%
COc1ccc(CCNC(=O)COC(=O)Cc2cccc(F)c2)cc1 | 7% | . | . | -3.1%
CCN(CC)S(=O)(=O)c1cccc(-c2nnc(SCc3nnc(-c4ccccc4)o3)n2C)c1 | -12% | 0% | -3 | 1.5%
CCOC(=O)c1sc2nc(N3CCOCC3)c3c(c2c1N)CCN(Cc1ccccc1)C3 | 18% | -9% | -18 | 2.1%
CC1CC(C)CN(c2nc(N(C)c3ccccc3)nc(N)c2[N+](=O)[O-])C1 (stereo not given) | 4% | 8% | -11 | 7.2%
COc1ccc(S(=O)(=O)N2CCC(C(=O)NCCC(=O)Nc3ccc(Cl)cc3)CC2)cc1 | -1% | -4% | . | 0.7%
CCN(CC)S(=O)(=O)c1ccc(OC)c(NC(=O)c2cc3c(=O)n4ccccc4nc3s2)c1 | ? | -3% | -1 | -1.4%
COC(=O)CSc1nc(C)c2c(n1)CCCC2 | -9% | -2% | 8 | -4.6%
CCOc1ccc(N/C=C/C(=O)c2ccc(C)cc2)c([N+](=O)[O-])c1 | ? | -36% | -1 | 1.1%
CCCCn1c(N)c(Sc2ccccc2)c(=O)[nH]c1=O | -19% | -3% | 6 | 2.8%

Later entries
Each structure is followed by: Rango dissoc inh	miR-21 FLuc	GLA inh pH 4.5	Rango complex inh
> CC(=O)OCC(=O)c1c[nH]c2ccccc12
 : -2%	-8%	3	-1.1%
> N=C(N1CCCc2ccccc21)N1CCCc2ccccc21
 : 6%	.	.	-0.6%
> O=c1c(-c2ccc(Cl)cc2)c[nH]n1-c1ccccc1
 : -8%	-36%	.	-0.8%
> COCCCn1c(N)c(-c2nc3ccccc3n2C)c2nc3ccccc3nc21
 : ?	21%	-7	?
> CCNS(=O)(=O)c1ccc(CCC(=O)NCc2ccc3c(c2)OCO3)cc1
 : 6%	2%	.	-1.3%
> O=C(Nc1ccc(F)cc1)c1nc[nH]c1C(=O)O
 : -8%	0%	.	3.6%
> CC(C)CCC(C(=O)O)C(C)CC(=O)NNC(=O)c1ccco1 (stereo not given)
 : -5%&7%	1%&-3%	3&4	1.6%&-3.4%
> Brc1nc(Br)n(Cc2ccccc2)n1
 : -17%	-2%	5	-2.1%
> CCN1CNC(=S)N(c2cccc(C)c2C)C1
 : -9%	2%	1	0.3%
> O=C(NC[C@@H]1CCCO1)c1cccc2c1C(=O)c1ccc(Cl)cc1S2(=O)=O
 : 8%	.	.	8.8%
> CN1CCCC1CCNC1C2CC3CC(C2)CC1C3 (stereo not given)
 : -4%	-11%	-7	-1.2%
> CC(C)CC(=O)Nc1cc(C(F)(F)F)ccc1N1CCOCC1
 : 20%	-5%	0	5.2%
> Cc1ccnc(NC(=O)c2ccc(C(=O)c3ccccc3)cc2)c1
 : 0%	.	.	3.2%
> Cc1ccc(S(=O)(=O)NC(=O)COc2ccccc2C)c(C)c1
 : 1%	-4%	.	1.4%
> O=C(Nc1ccccc1)C1CCCCN1S(=O)(=O)c1ccccc1 (stereo not given)
 : 13%	1%	3	13%
> CCCOC1CCCN(C(=O)c2cc(COc3ccc(F)c(F)c3)on2)C1 (stereo not given)
 : 7%	-41%	.	-3.5%
> O=C(OCCOc1cccc(Cl)c1)C1CCN(S(=O)(=O)c2ccccc2)CC1
 : 20%	-5%	.	-1.5%
> CC(C)(C)NC(=O)NC(=O)CN1C(=O)NC(c2ccccc2)(c2ccccc2)C1=O
 : 15%	9%	.	-1.1%
> CC(C)CNC(=S)NNC(=O)c1csc2c1CCCC2
 : 2%	-11%	-1	0.1%
> CC(=O)Nc1ccc2c(CSc3nnc(N)s3)cc(=O)oc2c1
 : -19%	0%	0	?

(more compounds)
Each structure is followed by: Rango dissoc inh	miR-21 FLuc	GLA inh pH 4.5	Rango complex inh
> O=C(NCc1cccnc1)NC1(C(F)(F)F)Oc2ccc(Cl)cc2O1 (stereo not given)
 : -18%	-6%	4	-1.0%
> O=C(c1ccc(C(F)(F)F)cc1)C1CCCN(C(=O)CCn2cncn2)C1 (stereo not given)
 : -18%	-1%	.	3.1%
> CCCCCc1cc(=O)oc2c(C(CCN(CC)CC)c3ccc(N(C)C)cc3)c(OC)cc(OC)c12 (stereo not given)
 : -28%	22%	-6	7.4%
> CCOC(=O)c1ccc(OCC2NCCc3cc(OC)c(OC)cc32)cc1 (stereo not given)
 : 0%	-15%	.	2.9%
> CCOC(=O)C1(C(=O)OCC)COC(=O)C2(CC)OC21 (stereo not given)
 : 12%	.	.	1.0%
> CCN1C(=O)CS/C1=N\S(=O)(=O)c1ccccc1
 : -8%	-4%	-2	4.0%
> CCOC(=O)c1cc2cc([N+](=O)[O-])ccc2oc1=O
 : 0%	-7%	-13	-2.9%
> O=C(NNc1ncc(C(F)(F)F)cc1Cl)c1ccc(Cl)c(Cl)c1
 : -3%	1%	-12	?
> CCN1C(=O)[C@H]2[C@@H](c3ccc(SC4CCCCC4)c(OC)c3)N[C@@](Cc3ccccc3)(C(=O)OC)[C@H]2C1=O
 : 1%	.	.	-2.2%
> CCCCCCc1c(O)c2ccccc2[nH]c1=O
 : 13%	-13%	-1	3.3%
> Cc1ccc(-c2nnn(CC(=O)N3CCCCC3)n2)o1
 : 13%	-24%	-3	-6.2%
> COCCNC(=O)C1CCCN(S(=O)(=O)c2ccc3c(c2)CC(C)N3C(=O)C2CC2)C1 (stereo not given)
 : 0%	-7%	.	-0.3%
> CCCOc1ccc(C2=CSC3=NCCN23)cc1Cl
 : -14%	19%	.	-1.5%
> COc1cccc(-n2ccnc2SCC(=O)NCc2ccccc2)c1
 : -14%	-3%	0	0.1%
> CC(C)(C)NC(=O)NC(=O)COC(=O)CCC1CCCC1
 : 5%	1%	1	-2.1%
> CCCCn1c(-c2ccccc2C)nc2cc3[nH]c(=O)c(C(C)C)nc3cc21
 : -10%	9%	.	?
> O=S(=O)(Cc1cc(NCc2ccccc2)nc(-c2ccccn2)n1)c1ccccc1
 : -8%	?	1	0.0%
> Cc1oc2nc(SCC(=O)NCCCO)nc(N)c2c1C
 : -11%	-2%	-4	-5.0%
> CN(C)/C=N/NC(=O)c1ccc(Cl)cc1
 : -1%	-1%	7	-5.1%
> Cc1ccc(S(=O)(=O)NC(C)CCc2ccccc2)cc1C(N)=O (stereo not given)
 : -1%	4%	.	-4.2%

Entries of single compounds, looked up by structure. Order of values: Rango dissoc inh | miR-21 FLuc | GLA inh pH 4.5 | Rango complex inh
Results for `CCOC(=O)c1cc2cc([N+](=O)[O-])ccc2oc1=O` → 0% | -7% | -13 | -2.9%
Results for `COc1cccc(-n2ccnc2SCC(=O)NCc2ccccc2)c1` → -14% | -3% | 0 | 0.1%

(continued)
Each structure is followed by: Rango dissoc inh	miR-21 FLuc	GLA inh pH 4.5	Rango complex inh
> O=C(CCS(=O)(=O)Cc1ccccc1)NCC1CCCO1 (stereo not given)
 : 4%	-5%	-2	1.1%
> CN(C)S(=O)(=O)n1cnc([C@@H]2[C@H]3C(=O)OC[C@@H]3C[C@@]23N=CN(Cc2ccccc2)C3=O)c1
 : 1%	.	.	0.2%
> Cc1cc(NC(=O)CSc2nc(C)c(C)c(=O)[nH]2)no1
 : -11%	.	.	-1.4%
> CCOC(=O)c1nn(-c2ccc(Br)cc2)cc1C(=O)c1cccc2ccccc12
 : -16%	-10%	0	9.7%
